Screens from PubChem BioAssay.
Rango dissoc inh: qHTS Assay for Inhibitors of RanGTP induced Rango (Ran-regulated importin-beta cargo) - Importin beta complex dissociation; Snurportin-1 (Homo sapiens) + GTP-binding nuclear protein Ran (Homo sapiens) + Importin …; Biochemical FRET Rango-importin beta, RanGTP-induced dissociation; Potency, µM (highest dose often 46.1 µM), without a hit: at the highest dose activity change, negative = inhibition; 340,000 tested, 0.071% active; AID 540253, 2011; active means falling FRET ratio curve, often poorly fitted, with flat reads before Ran was added; inconclusive means other falling curves, or compound fluorescence or quenching; inactive means flat or rising ratio curve;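 also: potency is read from the fitted curve at half-maximal effect; % of control where 0% means no effect; nearly all actives have a fitted effect of over 45% in size; -100% = wells without RanGTP and RCC1; the record marks most hits as doubtful in a second field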
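Rango (0.1 uM)–importin beta (0.25 uM) complex; RanGTP-RCC1 trigger; 45 min RT; CFP/YFP FRET read.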
miR-21 FLuc: qHTS Assay for Modulators of miRNAs and/orActivators of miR-21; HeLa miR-21 FLuc reporter, luciferase, 48 h; Potency, µM (titrated, usually from 38.3 µM), inactives show at the top dose reporter change, positive = more light; 340,000 tested, under 10 active; AID 2288, 2010; active = well fitted rising curve with a large enough effect; inconclusive = small, poorly fitted or top-dose-only effect; inactive = no such curve, though single readings can be large or run the other way;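 also: % of control where 0% means no effect; miR-21 action dims this reporter so a rising signal means less miR-21 action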
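Compounds were titrated across several concentrations (up to approximately 40 uM) and incubated 48 hours with HeLa miR-21-FLuc reporter cells (miR-21 target sequence downstream of FLuc, endogenous miR-21). Readout was firefly luciferase luminescence after lytic detection reagent.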
GLA inh pH 4.5: qHTS Assay for Inhibitors of Human alpha-Galactosidase at pH 4.5. Alpha-galactosidase A (Homo sapiens), P06280. AID 1467, 2008. activity change, negative = inhibition, % at 105 µM. purified enzyme, 4-MU-alpha-Gal fluorescence, pH 4.5. 230,000 tested, under 10 active; inconclusive = small, poorly fitted or top-dose-only inhibition, or a rising curve; inactive = flat fitted curve, though single readings scatter; no compound was filed as active;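 also: 0% = full activity with enzyme and -100% = basal without enzyme; dose as in the result columns while the protocol names 77 µM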
Rango complex inh: qHTS Assay for Inhibitors of Rango (Ran-regulated importin-beta cargo) - Importin beta complex formation. Importin subunit beta-1 (Homo sapiens), Q14974. Rango CFP/YFP FRET sensor + importin beta, 45 min. Potency, µM (titrated, usually from 92.2 µM), without a hit: at the top dose inhibition of complex formation. 340,000 tested, 0.031% active; active = rising FRET ratio curve, often small or poorly fitted; inconclusive = mostly compound fluorescence or quenching in the first reads; inactive = flat curves in all reads;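 also: potency is read from the fitted curve at half-maximal effect; 0% = DMSO wells and 100% = buffer wells lacking importin beta; nearly all actives have a fitted effect of over 15% in size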
Target sequence (Q14974 whole entry, looked up): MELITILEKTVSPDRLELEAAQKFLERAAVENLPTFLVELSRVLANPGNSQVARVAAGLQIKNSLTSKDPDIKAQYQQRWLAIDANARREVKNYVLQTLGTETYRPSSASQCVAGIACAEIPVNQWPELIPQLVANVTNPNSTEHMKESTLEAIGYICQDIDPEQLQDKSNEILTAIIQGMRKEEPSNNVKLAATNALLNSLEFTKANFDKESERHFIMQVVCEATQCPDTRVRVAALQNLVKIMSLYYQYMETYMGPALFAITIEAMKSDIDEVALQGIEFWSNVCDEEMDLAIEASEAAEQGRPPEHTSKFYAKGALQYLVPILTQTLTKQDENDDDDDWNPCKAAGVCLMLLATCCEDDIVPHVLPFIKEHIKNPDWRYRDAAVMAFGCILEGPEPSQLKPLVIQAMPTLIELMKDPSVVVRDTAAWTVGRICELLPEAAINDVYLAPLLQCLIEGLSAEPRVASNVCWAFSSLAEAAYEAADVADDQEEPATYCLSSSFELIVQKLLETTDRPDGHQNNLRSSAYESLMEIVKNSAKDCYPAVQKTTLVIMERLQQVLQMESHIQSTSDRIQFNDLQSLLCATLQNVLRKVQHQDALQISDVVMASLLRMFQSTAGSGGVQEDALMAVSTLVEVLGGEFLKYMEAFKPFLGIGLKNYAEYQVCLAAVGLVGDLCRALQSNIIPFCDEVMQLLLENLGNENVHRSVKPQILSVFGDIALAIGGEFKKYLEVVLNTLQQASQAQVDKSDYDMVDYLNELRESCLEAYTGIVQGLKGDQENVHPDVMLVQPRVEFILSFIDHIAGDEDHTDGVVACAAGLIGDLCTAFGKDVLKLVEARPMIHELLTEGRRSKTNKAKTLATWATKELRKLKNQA
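FRET biosensor (snurportin 1 IBB flanked by EYFP and cerulean), 50 nM, with compound 5 min, then 0.125 microM importin beta in PBS, 1 mM DTT, 0.02% Tween-20, 0.1% BSA. CFP/YFP ratio read after 45 min at room temperature; pre-read flags interference.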
* hit, by the source's call; ? = inconclusive; . = not tested or not shown; & = joins results of further samples.

Rango dissoc inh	miR-21 FLuc	GLA inh pH 4.5	Rango complex inh	SMILES
-19%	-24%	5	4.5%	O=C(NCCNC(=O)c1cc(OCC(F)(F)F)ccc1OCC(F)(F)F)Nc1ccc(Cl)cc1
17%	9%	4	0.1%	COc1ccc(NS(=O)(=O)c2cn(C)c(=O)n(C)c2=O)cc1
-9%	.	.	0.5%	Cc1cc(C)nc(NC(N)=NCCc2ccccc2)n1
12%	-6%	-20	0.1%	CCC(C)N(C)Cc1cccc(C2(O)CCN(S(=O)(=O)c3ccc(F)c(C)c3)CC2)c1 (stereo unspecified)
-9%	11%	2	3.1%	O=C(O)c1cc(NCc2c(F)cccc2Cl)ccc1N1CCOCC1
0%	.	.	-0.7%	COCCNC(=O)c1onc(CS(=O)(=O)c2cc(C)cc(C)c2)c1C(=O)NCCOC
0%	-7%	.	-2.2%	COc1ccccc1NC(=S)NC(=O)CCc1ccccc1
8%	-2%	0	-0.2%	CC(C)c1ccc(N)c(S(=O)(=O)O)c1
-18%	-1%	.	-1.0%	Cc1ccc(CCNC(=O)C2CCCN(S(C)(=O)=O)C2)cc1 (stereo unspecified)
-19%	-2%	1	3.0%	Cc1ccc(N2CC(O)(c3cccs3)[N+]3=C2CCCC3)cc1 (stereo unspecified)
-2%	-1%&1%	1	-0.6%	COc1ccc(Cn2c(CCC(=O)Nc3ccccc3OC)nc3cccnc32)cc1
-9%	-4%	.	-1.3%	Cc1ccc(C(=O)N2CCCCCC2)cc1S(=O)(=O)N1CCOCC1
0%	-16%	0	-0.2%	COc1ccc(C(=O)NCCSc2ccccn2)cc1
-7%	-1%	.	1.5%	CCOC(=O)c1oc2ccccc2c1CN1CC(C)OC(C)C1 (stereo unspecified)
-3%	-51%	-4	-1.3%	O=C(NC1CCCCC1)c1cc(-c2ccco2)on1
-11%	-6%	7	-4.1%	Cc1nc2sc(C(c3ccco3)N3CCC(C)CC3)c(O)n2n1 (stereo unspecified)
-1%	-33%	?	0.3%	CCCCNC(=O)CCC(=O)Nc1ccc2nc(N3CCOCC3)cc(C)c2c1
0%	-32%	5	-2.0%	O=C(CCc1nnc(CCCCc2ccccc2)o1)NCCN1CCOC1=O
2%	-2%	2	4.6%	Cc1c(C(=O)O)oc2ccc(S(=O)(=O)NCc3ccccc3)cc12
1%	5%	.	1.5%	COCCCN1C(=O)N(c2ccc(F)cc2)C(=O)C1CC(=O)Nc1ccc(OC)cc1 (stereo unspecified)
-2%	3%	14	2.9%	N#Cc1ccc(-c2cn(-c3ccccc3)c3[n+]2CCCS3)cc1
2%	0%	2	-1.0%	CC(C)NC(=O)COC(=O)c1cc(=O)[nH]c2ccccc12
0%	.	.	0.4%	NC(=O)C1CCCN(C(=O)c2ccc(S(=O)(=O)N3CCCCCC3)cc2)C1 (stereo unspecified)
4%	6%	1	0.8%	N/C(CCCN1CCCCC1)=N/O
10%	-1%	.	-0.6%	CNC(=O)CSc1nnc(-c2ccco2)n1-c1cc(C)ccc1C
-13%	1%	11	4.3%	COC(=O)CNC(=O)CNC(=O)Nc1ccccc1Cl
15µM*	-1%	0	?	CCOC(=O)CC1=C(C(=O)OCC)C(c2cc(OC)c(OC)cc2OC)C(C#N)=C(N)O1 (stereo unspecified)
0%	-6%	-30	5.1%	Cn1c(=O)n(Cc2ccccc2Cl)c2ccccc21
21%	-4%	.	-0.9%	Cc1ccccc1-c1nc(CS(=O)(=O)CC(=O)N2CCCCC2)c(C)o1
-4%	-2%	.	-1.6%	O=C(O)CCc1ccc(-c2ccccc2)n1CC(=O)Nc1cccc(C(F)(F)F)c1
1%	-4%	.	-4.7%	CCOc1ccc(S(=O)(=O)N2CCOCC2)cc1NC(=O)CN1C(=O)NC(CC)(c2ccccc2)C1=O (stereo unspecified)
-13%	.	6&9	?	Nc1cc(C(Cl)=C(Cl)Cl)c(S(N)(=O)=O)cc1S(N)(=O)=O
-7%	0%	-11	-0.8%	Cc1cc(S(=O)(=O)N(Cc2ccccc2F)C2CC2)ccc1-n1cnnn1
1%	-3%	-5	2.4%	CC(O/N=C/c1ccc(OC(F)F)cc1)C(=O)Nc1cccc(S(=O)(=O)N2CCOCC2)c1 (stereo unspecified)
6%	.	.	0.1%	CC(C)C(C)(C#N)NC(=O)COC(=O)C1CCN(S(=O)(=O)c2ccc3c(c2)OCCO3)CC1 (stereo unspecified)
-10%	18%	-4	?	CCN(CC)C(=O)CSc1nc2ccc(NC(=O)CSc3nnc(N)s3)cc2s1
7%	0%	.	-1.4%	Cc1nc2ccc(C(=O)N/N=C/c3ccc(O)cc3)cc2[nH]1
-3%	-21%	-4	-2.4%	Cc1ccc(OC(=O)c2sc3ncn(C)c(=O)c3c2C)cc1
45%	-35%	5	0.1%	CCn1ncc(/C=C2/SC(=S)NC2=O)c1C
-5%	.	.	-1.2%	CC(OC(=O)C1CCCC1)C(=O)Nc1ncc(Cl)cc1Cl (stereo unspecified)
14%	-8%	-1	4.7%	Nc1c(C(=O)N/N=C/c2ccc(OCc3ccccc3)cc2)cnn1-c1ccccc1
24%	-2%	8	-1.3%	CNS(=O)(=O)c1cccc(C(=O)OCC(=O)N2CCc3ccccc3C2)c1
8%	-5%	-3	0.2%	C=CCNC(=O)CSc1nnc(-c2cccs2)o1
-11%	0%	7	-1.9%	O=C(Cn1cnc2ccccc2c1=O)NCC(=O)N1CCOCC1
0%	.	.	8.4%	Cc1noc(C)c1C(=O)OCC(=O)Nc1ccccc1SCC#N
-25%	-3%	4	?	N=C1/C(=C\c2ccc(OC(=O)c3ccco3)cc2)C(=O)N=C2SC=NN12
-17%	12%	-18	1.0%	COc1ccccc1C(CCNS(=O)(=O)c1ccc(C)cc1)c1ccco1 (stereo unspecified)
5%	.	.	0.5%	COc1ccc(C(=O)NC2CCN(Cc3ccccc3)C2)cc1S(=O)(=O)N1CCOCC1 (stereo unspecified)
3%	3%	.	-0.1%	COc1ccc(CNC(=O)CN(Cc2ccccc2Cl)C(=O)c2csnn2)cc1
-8%	3%	-1	-0.1%	O=C(O)CCN(Cc1ccccc1)S(=O)(=O)c1ccc(Cl)cc1F
-13%	-7%	6	?	CC1=C(C(=O)Nc2ccc(C)cc2C)C(c2cccc(Cl)c2)n2nc(C(=O)OC(C)C)nc2N1 (stereo unspecified)
4%	-58%	0	2.9%	Cc1ccc(-c2cc(-c3c(C)nn(C)c(=O)c3N)[nH]n2)cc1
9%	.	.	-0.2%	CC(C)=CCc1c(O)cc2c(c1O)C(=O)CC(c1ccccc1)O2 (stereo unspecified)
-12%	0%	-6	4.1%	COc1ccc(C2C3=C(NCCN=C3c3ccccc3)C(=O)N2c2ccccc2)c(OC)c1 (stereo unspecified)
-1%	.	.	-0.1%	Cc1cc(Br)c(OCc2ccc(C(=O)N/N=C/c3ccc[nH]3)cc2)c(Br)c1
14%	0%	0	-6.7%	NS(=O)(=O)c1ccc(-c2ccc(/C=N/NC(=O)c3ccc([N+](=O)[O-])cc3)o2)cc1
28%	8%	.	-0.7%	NNC(=O)c1cc(C2CC2)nc2ccc(Br)cc12
-7%	-3%	5	-1.5%	COc1ccc(CCN2C(=O)CC(C(N)=O)SC2=Nc2ccc(F)cc2)cc1OC (stereo unspecified)
-10%	6%	-3	-0.4%	Cc1ccc(CN2CC(C(=O)Nc3ccc(F)c([N+](=O)[O-])c3)CC2=O)cc1 (stereo unspecified)
3%	-9%	-4	-1.7%	CS(=O)(=O)N(Cc1ccccc1)c1ccc(C(=O)NN=C2CCCCCC2)cc1

A second format for some results above:
Values in the order – Rango dissoc inh | miR-21 FLuc | GLA inh pH 4.5 | Rango complex inh
O=C(O)CCN(Cc1ccccc1)S(=O)(=O)c1ccc(Cl)cc1F
 : -8% | 3% | -1 | -0.1%
CC1=C(C(=O)Nc2ccc(C)cc2C)C(c2cccc(Cl)c2)n2nc(C(=O)OC(C)C)nc2N1 (stereo unspecified)
 : -13% | -7% | 6 | ?
Cc1ccc(-c2cc(-c3c(C)nn(C)c(=O)c3N)[nH]n2)cc1
 : 4% | -58% | 0 | 2.9%
CC(C)=CCc1c(O)cc2c(c1O)C(=O)CC(c1ccccc1)O2 (stereo unspecified)
 : 9% | . | . | -0.2%
COc1ccc(C2C3=C(NCCN=C3c3ccccc3)C(=O)N2c2ccccc2)c(OC)c1 (stereo unspecified)
 : -12% | 0% | -6 | 4.1%

Next section
Rango dissoc inh	miR-21 FLuc	GLA inh pH 4.5	Rango complex inh	SMILES
10%	-4%	3	9.0%	S=C(N/N=C1\C2CN3CCN(C2)CC1(c1ccccc1)C3)Nc1ccccc1
-12%	-9%	1	-1.2%	COc1ccc(-n2ccnc2SCC(=O)Nc2ccc(OC)cc2OC)cc1
-6%	-8%	-4	0.0%	O=S(=O)(c1cccs1)N1CN(C2CCCC2)c2nc3ccccc3nc21
-22%	0%	7	?	COC(=O)C1Cc2c([nH]c3ccccc23)C(C)N1 (stereo unspecified)
1%	-8%	-4	?	Cc1ccc(CN2CCSc3ccc(C(=O)N4CCN(c5ncccn5)CC4)cc32)cc1
-1%	0%	10	-1.1%	O=C(O)CCc1ccc(-c2cccs2)n1-c1ccc(C(=O)O)cc1
3%	13%	8	-1.7%	CN(CC(=O)Nc1cccc2ccccc12)c1ccc(S(=O)(=O)N2CCOCC2)cn1
15%	5%	.	-0.4%	OC(COc1ccccc1)CN1CCN(C(c2ccccc2)c2ccccc2)CC1 (stereo unspecified)
11%	-3%	.	3.9%	COC(=O)c1ccccc1NC(=O)CSc1nc(Nc2ccccc2)nc(N2CCOCC2)n1
10%	.	.	6.8%	CC(NC(=O)c1ccc(NC(=O)CC2SC(N3CCCC3)=NC2=O)cc1)c1ccc(F)cc1 (stereo unspecified)
-8%	-40%	1	-0.7%	O=C(NCc1csc(-c2cccs2)n1)c1ccsc1
17%	-12%	4	-0.4%	CCN(CC)C(=O)CSc1nnc(-c2cnccn2)n1-c1ccc(C)cc1
5%	-13%	-10	3.5%	Cc1cnn(-c2cc(N/N=C/c3ccccc3)ncn2)c1
-17%	.	.	-2.5%	COC(=O)c1ccc(C)c(NC(=O)CSc2nc3[nH]c(=O)cc(O)c3s2)c1
?	-13%	0	?	C=CCN1CN(S(=O)(=O)c2cccs2)c2nc3ccccc3nc21
-7%	-32%	4	-1.2%	COc1cccc(-c2nnc(SCc3nc4ccccc4s3)n2C)c1
6%	-18%	?	-2.6%	CN1CCN(c2oc(/C=C/c3ccccc3)nc2C#N)CC1
-5%	0%&1%	.	-1.4%	CCc1nc2ccc(C(=O)N3CCN(c4cccc(Cl)c4)CC3)cc2nc1CC
7%	-10%	-18	-0.3%	Cc1cc(C)c(OCCN2CC(C)OC(C)C2)c(Br)c1 (stereo unspecified)
2%	0%	3	1.5%	O=C(NNC(=O)c1ccccc1[N+](=O)[O-])c1ccccc1[N+](=O)[O-]
-14%	-3%	-2	1.7%	COc1ccc(C2CC(c3ccccc3C)n3nc(N)nc3N2)cc1 (stereo unspecified)
-15%	26%	.	0.1%	O=C(c1ccc(S(=O)(=O)Cc2ccccc2Cl)c([N+](=O)[O-])c1)N1CCOCC1
-13%	-3%	1	3.9%	OC(COc1ccc(CN2CCCCO2)cc1)CN1CCCCC1 (stereo unspecified)
14%	-16%	-2	-1.3%	COc1cccc(-c2csc(N3CCN(C(=S)Nc4ccccc4OC)CC3)n2)c1
-10%	4%	.	4.5%	COc1ccccc1C(=O)C1CCCN(Cc2cccc(OCCO)c2)C1 (stereo unspecified)
20%	.	.	0.0%	O=C(NCCOc1ccccc1F)c1cccc(S(=O)(=O)N2CCN(c3ccccc3)CC2)c1
-5%	1%	.	-0.8%	O=C1c2ccccc2CN1C(CO)Cc1ccccc1 (stereo unspecified)
0%	0%	.	3.2%	O=C(CN(Cc1ccco1)C(=O)CCC(=O)Nc1ccccn1)NCc1ccccc1
-22%	-5%	-3	?	CCOC(=O)CC(=O)CSc1nc(-c2cccnc2)cc(C)c1C#N

A portion of the library; count on the stated rates, not on these rows.
